High-throughput results from PubChem BioAssay.
Vaccinia inh – blocks a specific stage of Vaccinia orthopoxvirus infection; Vaccinia-infected cells, mCherry/Venus stage reporter fluorescence; hits give low values; some inactives read as strong as hits; activity change (mCherry), % (concentration not given with the values); 89,000 tested, 0.01% active; AID 1053133;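 active means mCherry past -33% and 40 or more points under the early reporter, replicates agreeing; inconclusive means past -33% without that gap or agreement; tested in A549 cells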;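 further: scaled between vehicle wells and reference inhibitor wells; 23 nL library stock went into each well; one replicate is shown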
Vaccinia inh Venus – recorded beside Vaccinia inh, whose call it bears; activity change (Venus), %; measured here: Venus reporter, other viral stage;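 negative = less Venus signal; first of two replicates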
An asterisk follows results filed as active; ? = inconclusive; . = no result given; & = joins results of further samples.

SMILES | Vaccinia inh | Vaccinia inh Venus
C/C=C/c1ccc2c(c1)O[C@@H](CN(C)Cc1cncnc1)[C@H](C)CN([C@@H](C)CO)S2(=O)=O | -15 | -8
C[C@@H]1CN([C@@H](C)CO)C(=O)Cc2cc(NS(=O)(=O)c3cn(C)cn3)ccc2O[C@@H]1CN(C)S(=O)(=O)c1cccs1 | 2 | -11
CN(C)C(=O)c1cc2c(c(-c3cccc(-c4ccccc4F)c3)n1)[C@H](CCO)N(S(C)(=O)=O)C2 | 14 | 9
C[C@@H]1CN([C@H](C)CO)C(=O)c2cc(N(C)C)ccc2O[C@H]1CN(C)Cc1ccc(C(F)(F)F)cc1 | -5 | -6
O=C(C[C@@H]1CC[C@H](NS(=O)(=O)c2ccccc2)[C@@H](CO)O1)N1CCc2ccccc2C1 | 8 | 0
O=C(N[C@@H]1CC[C@@H](CCNC(=O)C2CCC2)O[C@H]1CO)c1ccncc1 | -6 | -2
CC(C)NC(=O)N(C)C[C@H]1OCCCC[C@H](C)Oc2ccc(N(C)C)cc2C(=O)N([C@H](C)CO)C[C@@H]1C | 19 | 11
CC(C)NC(=O)N[C@@H]1C[C@@H]2O[C@H](CO)CC[C@@H]2O[C@@H]1CCc1ccc(-c2ccc(F)cc2)cc1 | -12 | -12
C[C@H]1CN([C@@H](C)CO)C(=O)c2cc(NC(=O)CCCN(C)C)ccc2O[C@@H]1CN(C)S(=O)(=O)c1ccc(Cl)cc1 | -11 | -7
Cc1ccccc1-c1cnc2c(c1)C(=O)N([C@H](C)CO)C[C@@H](C)[C@@H](CN(C)CC1CCOCC1)O2 | 9 | 0
Cc1nn(C)cc1NC(=O)C[C@@H]1CC[C@@H]2[C@@H](COc3ccc(NC(=O)NC(C)C)cc3C(=O)N2C)O1 | 8 | 6
C[C@@H]1CN([C@H](C)CO)C(=O)Cc2cc(NC(=O)CCCN(C)C)ccc2O[C@@H]1CN(C)Cc1ccc(-c2ccccc2)cc1 | ? | .
COc1ccc(CN(C)C[C@H]2OCCCC[C@@H](C)Oc3ccc(NC(=O)Nc4ccc5c(c4)OCO5)cc3C(=O)N([C@H](C)CO)C[C@@H]2C)cc1 | 1 | -10
O=S(=O)(c1ccccc1F)N1[C@@H]2CNC[C@H]1C2c1ccc(-c2ccncc2)cc1 (stereo partly drawn) | -22&15 | -22&0
C[C@@H]1CN([C@H](C)CO)C(=O)c2cccc(NC(=O)c3nc4ccccc4s3)c2O[C@@H]1CN(C)Cc1ccc2c(c1)OCO2 | -16 | -23
CN(C)C(=O)c1cccc(-c2ccc([C@H]3[C@@H](CO)N4C(=O)CN(C(=O)Cc5ccccc5)C[C@@H]34)cc2)c1 | 3 | 5
COC(=O)C[C@H]1CC[C@@H]2[C@H](COc3ccc(NC(=O)c4cccc(F)c4)cc3C(=O)N2C)O1 | 5 | 3
O=C(Cc1ccccn1)N[C@@H]1CC[C@H](CCNS(=O)(=O)c2cccc(F)c2)O[C@@H]1CO | 8 | 11
CCCNC(=O)C[C@H]1CC[C@@H]2[C@H](COc3ccc(NC(=O)NCC)cc3C(=O)N2C)O1 | 10 | 11
COc1ccc(S(=O)(=O)N2[C@@H]3CNC[C@H]2C3c2ccc(-c3cccc(OC)c3)cc2)cc1 (stereo partly drawn) | 16&11 | 0&5

Brought forward from above: 5 compounds; new compounds follow.
SMILES | Vaccinia inh | Vaccinia inh Venus
CN(C)C(=O)c1cccc(-c2ccc([C@H]3[C@@H](CO)N4C(=O)CN(C(=O)Cc5ccccc5)C[C@@H]34)cc2)c1 | 3 | 5
COC(=O)C[C@H]1CC[C@@H]2[C@H](COc3ccc(NC(=O)c4cccc(F)c4)cc3C(=O)N2C)O1 | 5 | 3
O=C(Cc1ccccn1)N[C@@H]1CC[C@H](CCNS(=O)(=O)c2cccc(F)c2)O[C@@H]1CO | 8 | 11
CCCNC(=O)C[C@H]1CC[C@@H]2[C@H](COc3ccc(NC(=O)NCC)cc3C(=O)N2C)O1 | 10 | 11
COc1ccc(S(=O)(=O)N2[C@@H]3CNC[C@H]2C3c2ccc(-c3cccc(OC)c3)cc2)cc1 (stereo partly drawn) | 16&11 | 0&5
COc1ccc(CN(C)C[C@H]2Oc3ccc(NS(=O)(=O)c4ccc(F)cc4)cc3C(=O)N([C@@H](C)CO)C[C@H]2C)cc1 | -1 | 2
C[C@@H]1CN([C@H](C)CO)C(=O)c2cccc(NS(=O)(=O)c3cccs3)c2O[C@H]1CN(C)CC1CCCCC1 | -15 | 1
COc1ccc(NC(=O)N2CC(=O)N3[C@H](CO)[C@@H](c4ccc(/C=C/c5ccccc5)cc4)[C@H]3C2)cc1 | -32 | -28
CC(C)NC(=O)Nc1ccc2c(c1)C(=O)N([C@H](C)CO)C[C@H](C)[C@H](CN(C)C(=O)CCCN(C)C)OCCCC[C@@H](C)O2 | 3 | 0
COc1ccccc1CN1CC[C@@H]2[C@H]1c1cc(C3=CCCCC3)ccc1N[C@@H]2CO | ? | .
COCC#Cc1ccc2c(c1)O[C@H](CN(C)Cc1ccccc1)[C@H](C)CN([C@@H](C)CO)S2(=O)=O | -30 | -25
C[C@H]1CN([C@@H](C)CO)S(=O)(=O)c2ccc(-c3cccc(C(=O)N(C)C)c3)cc2O[C@H]1CN(C)C | 5 | 5
CCNC(=O)c1cc2c(c(-c3cccc(-c4ccccc4F)c3)n1)[C@H](CCO)N(C(=O)CC1CC1)C2 | -30 | -25
CO[C@H]1CN(C)C(=O)c2cc(NC(=O)C3CC3)ccc2OC[C@H](C)N(CC2CCCC2)C[C@H]1C | 1 | 4
CC=Cc1ccc2n(c1=O)C[C@H]1[C@H](CO)[C@@H](C(=O)NCCC)N(Cc3cccc(F)c3)[C@@H]21 (mixture of isomers) | 2 | 3
CC(=O)N(C)C[C@H]1Oc2cc(C#C[C@H](C)O)ccc2S(=O)(=O)N([C@H](C)CO)C[C@@H]1C | 15 | 7
C[C@H]1CN([C@@H](C)CO)C(=O)Cc2cc(NC(=O)c3ccncc3)ccc2O[C@H]1CN(C)CC1CCCCC1 | -10 | -2
C[C@@H]1CN([C@@H](C)CO)S(=O)(=O)c2ccc(C#Cc3cccnc3)cc2O[C@@H]1CN(C)C(=O)C1CC1 | -4 | -6
C[C@@H]1CN([C@H](C)CO)C(=O)c2ccccc2-c2ccccc2CO[C@@H]1CN(C)S(=O)(=O)c1cccc(F)c1 | -1 | -2
CCNC(=O)[C@H]1[C@H](CO)[C@H]2Cn3c(ccc(-c4ccccc4)c3=O)[C@H]2N1C(=O)C1CC1 | 21 | 12
COCC#Cc1ccc2c(c1)O[C@@H](CN(C)S(=O)(=O)c1ccc(F)cc1)[C@H](C)CN([C@H](C)CO)S2(=O)=O | 2 | -8
CCCC#Cc1ccc2c(c1)O[C@@H](CN(C)C)[C@@H](C)CN([C@@H](C)CO)S2(=O)=O | -19 | -12
O=C(O)C[C@H]1C[C@@H]2c3cc(NS(=O)(=O)c4ccccc4)ccc3O[C@@H]2[C@@H](CO)O1 | 11 | 3
C[C@@H]1CN([C@@H](C)CO)C(=O)CCCn2cc(nn2)CO[C@H]1CN(C)S(=O)(=O)c1ccc(-n2cccn2)cc1 | 6 | 10
C[C@H]1CN([C@@H](C)CO)C(=O)c2cc(NS(=O)(=O)c3cccs3)ccc2O[C@@H]1CN(C)CC1CCCCC1 | 18 | 14
CCCN(C)C[C@@H]1Oc2cc(C#CC(C)C)ccc2S(=O)(=O)N([C@@H](C)CO)C[C@@H]1C | -4 | 6
CN1C(=O)c2cc(NC(=O)C3CCOCC3)ccc2OC[C@H]2O[C@@H](CC(=O)NC3CCCC3)CC[C@@H]21 | 12 | 8
C[C@@H]1CN([C@@H](C)CO)S(=O)(=O)c2ccc(C#CCN(C)C)cc2O[C@H]1CN(C)C(=O)CN(C)C | -5 | -2
Cc1noc(C)c1NC(=O)N(C)C[C@@H]1Oc2ncc(C#CC(C)C)cc2C(=O)N([C@H](C)CO)C[C@H]1C | 22 | 16
C[C@H](CO)N1C[C@H](C)[C@@H](CN(C)S(=O)(=O)c2ccccc2F)Oc2ncc(/C=C/c3ccccc3)cc2C1=O | ? | .
CCCc1cn(CC[C@H]2CC[C@@H](NC(=O)C3CCOCC3)[C@@H](CO)O2)nn1 | -5 | -6
C[C@@H]1CN([C@@H](C)CO)C(=O)c2cc(NC(=O)Cc3cn(C)c4ccccc34)ccc2O[C@H]1CN(C)S(=O)(=O)c1cn(C)cn1 | 16 | 10
CCOC(=O)N(C)C[C@H]1OCc2ccccc2-c2c(n(C)c3ccccc23)C(=O)N([C@@H](C)CO)C[C@H]1C | -16 | -18
Cc1noc(C)c1NC(=O)Nc1ccc2c(c1)CC(=O)N([C@H](C)CO)C[C@H](C)[C@@H](CN(C)S(=O)(=O)c1ccc(F)cc1)O2 | 16 | 11
C[C@H](NC(=O)C[C@@H]1C[C@@H]2c3cc(NC(=O)C4CCOCC4)ccc3O[C@@H]2[C@@H](CO)O1)c1ccccc1 | -12 | -2
C[C@@H]1CN([C@H](C)CO)C(=O)CCCn2nncc2CO[C@H]1CN(C)C(=O)c1ccccc1 | -4 | -1
C[C@@H]1CCCCO[C@@H](CN(C)S(=O)(=O)c2cccs2)[C@@H](C)CN([C@H](C)CO)C(=O)c2cc(NC(=O)CCC(F)(F)F)ccc2O1 | 23 | 6
COc1ccc2c3c(n(C)c2c1)[C@H](CO)N(C(=O)c1ccccn1)CC31CN(C(=O)Cc2ccccc2)C1 | 3 | -4
CC=Cc1ccc2n(c1=O)C[C@H]1[C@H](CO)[C@@H](C(=O)NCCc3cn(C)cn3)N(C(=O)CC)[C@@H]21 (mixture of isomers) | -1 | -1
C[C@H]1CN([C@@H](C)CO)C(=O)c2cc(-c3cccc(F)c3)cnc2O[C@@H]1CN(C)C(=O)Nc1cc(F)ccc1F | -10 | -4
COc1cccc(S(=O)(=O)N2CC[C@@H]3[C@H](CO)N(C)c4ccc(C#Cc5cccnc5)cc4[C@@H]32)c1 | -12 | -9
CO[C@H]1CN(C)C(=O)c2ccc(NC(=O)C3CC3)cc2OC[C@@H](C)N(CC2CCCC2)C[C@@H]1C | 10 | 25
COc1ccc(S(=O)(=O)Nc2ccc3c(c2)C(=O)N([C@@H](C)CO)C[C@H](C)[C@@H](CN(C)C(=O)NC(C)C)OCCCC[C@@H](C)O3)cc1 | -2 | 4
COCC(=O)Nc1ccc2c(c1)C(=O)N(C)C[C@H](OC)[C@H](C)CN(C(=O)CC1CC1)[C@@H](C)CO2 | -2 | -3
COc1ccc(CN(C)C[C@H]2OCCCC[C@H](C)Oc3ccc(NC(=O)Nc4ccc5c(c4)OCO5)cc3C(=O)N([C@@H](C)CO)C[C@@H]2C)cc1 | ? | .

Sorted by count of non-hydrogen atoms (smallest number first): part of the list above
SMILES | Vaccinia inh | Vaccinia inh Venus
CC(C)NC(=O)N[C@@H]1C[C@@H]2O[C@H](CO)CC[C@@H]2O[C@@H]1CCc1ccc(-c2ccc(F)cc2)cc1 | -12 | -12
Cc1noc(C)c1NC(=O)N(C)C[C@@H]1Oc2ncc(C#CC(C)C)cc2C(=O)N([C@H](C)CO)C[C@H]1C | 22 | 16
Cc1noc(C)c1NC(=O)Nc1ccc2c(c1)CC(=O)N([C@H](C)CO)C[C@H](C)[C@@H](CN(C)S(=O)(=O)c1ccc(F)cc1)O2 | 16 | 11

Next results follow:
SMILES | Vaccinia inh | Vaccinia inh Venus
COc1cccc(NC(=O)N2CC(=O)N3[C@H](CO)[C@@H](c4ccc(Br)cc4)[C@@H]3C2)c1 | -28 | -18
C[C@@H]1CN([C@H](C)CO)C(=O)c2cc(NC(=O)Nc3ccc(F)cc3)ccc2O[C@@H]1CN(C)S(=O)(=O)c1ccc(F)cc1 | -32 | -17
CC(C)CC#Cc1ccc2c(c1)O[C@H](CN(C)C(=O)Nc1ccccc1)[C@H](C)CN([C@H](C)CO)S2(=O)=O | ? | .
CC(C)NC(=O)N(C)C[C@@H]1Oc2ncc(C#Cc3ccccc3F)cc2C(=O)N([C@H](C)CO)C[C@@H]1C | 13 | 5
C[C@H]1CN([C@@H](C)CO)C(=O)c2cc(C#Cc3ccccc3)cnc2O[C@H]1CN(C)C(=O)CN(C)C | 1 | 7
O=S(=O)(N[C@H]1CC[C@@H](CCn2cc(-c3cccc(F)c3)nn2)O[C@@H]1CO)c1ccc(Cl)cc1 | ? | .
CC(C)NC(=O)N(C)C[C@H]1Oc2ccc(NC(=O)Nc3ccccc3)cc2C(=O)N([C@H](C)CO)C[C@H]1C | 6 | 1
C[C@@H]1CCCCO[C@@H](CN(C)S(=O)(=O)c2ccccc2)[C@@H](C)CN([C@@H](C)CO)C(=O)c2cc(N(C)C)ccc2O1 | -11 | -2
COCC(=O)N1CC(=O)N2[C@H](CO)[C@@H](c3ccc(C#CC4CCCCC4)cc3)[C@@H]2C1 | -33 | -35
Cc1ccc(S(=O)(=O)NCC[C@H]2CC[C@H](NC(=O)Nc3cccc(F)c3)[C@H](CO)O2)cc1 | -23 | -9
COc1cccc(NC(=O)C[C@H]2CC[C@H]3[C@H](COc4ccc(NC(=O)C5CCC5)cc4C(=O)N3C)O2)c1 | 5 | 6
O=C(C[C@@H]1CC[C@@H](NC(=O)Nc2ccccc2F)[C@@H](CO)O1)NCc1ccccc1 | -2 | -8

A portion of the library (hit frequency here may not be typical).
